# AID504770 = growth inhibition of E. coli YBA685, primary screen, V. cholerae RctB inhibitors; z-score (no concentration beside the values); E. coli YBA685 rctB-dependent plasmid, OD600 growth, 3 h; stronger effect = lower value; 0.27% of 130,000 active;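 active = z-score under -2 on both plates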;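 note: wells of about 30 µL received 100 nL stock; score is relative to mean and SD of the test wells; the first replicate is given; strong numbers were not always called active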
# Ba CapD inh = Bacillus anthracis CapD inhibitors, primary screen, biochemical, fluorescence intensity. z-score (concentration not given with the values). 0.23% of 140,000 active. purified CapD enzyme, fluorescence intensity read-out; stronger effect = lower value; some hits fall short of the stated cut. CapD gamma-glutamyltranspeptidase (Bacillus anthracis Ames Ancestor);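 active = z-score under -4 in either of two replicates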;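 note: stock transfer was 100 nL into about 40 µL; score is relative to mean and spread of the plate; one replicate is shown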
# Starred values were filed as active, the others as inactive; / = not tested or not shown; & = joins results of further samples.
SMILES,AID504770,Ba CapD inh
CC1=C(C(=O)Nc2ccccc2)C(c2ccc(O)cc2)n2ncnc2N1 (centres undefined),/,-1.08
Cc1ccccc1C(=O)OCC(=O)Nc1cccc(C#N)c1,-0.6,-0.385
Cc1[nH]nc(-c2ccc(S(=O)(=O)N3CCc4ccccc43)s2)c1C,-0.8,-0.165
COc1cc(/C=C2\C(=O)NC(=S)N(c3ccc(F)cc3)C2=O)ccc1OCc1ccc(C(=O)O)cc1,/,0.07
O=C(CSc1nc2c(c(=O)n1-c1ccc(Br)cc1)SCC2)N1CCC(Cc2ccccc2)CC1,/,0.24
CCOC(=O)N1CCC(NC(=O)CSCc2nc(-c3ccccc3Cl)oc2C)CC1,0.65,-0.07
O=C(/C=C/c1ccco1)OCc1nc2sc3c(c2c(=O)[nH]1)CCCC3,1.4,/
O=C(O)[C@H]1OC(O)[C@H](O)[C@@H](O)[C@@H]1O (some centres undefined),/,0.19
CCCCC(=O)Nc1ccc(S(=O)(=O)N2CCCCCC2)cc1,0.05,-0.06
COc1cc(Cl)c(COC(=O)N2CCCC2C(=O)Nc2ccc3ccccc3c2)cc1OC (centres undefined),/,-0.345
N#CCOC(=O)c1ccccc1NC(=O)c1ccccc1,0.05,/
O=C(OCC(=O)c1ccc(Cl)cc1Cl)c1ccccn1,-1.05,-1.17
COc1cccc(-n2c(=O)c3sccc3n(Cc3ccc(C(C)(C)C)cc3)c2=O)c1,1.45,0.16
O=[N+]([O-])c1ccc(-c2nc(N3CCCCCC3)c3ccccc3n2)cc1,/,0.06
COCCCNC(=O)CSc1nc(Nc2cc(OC)cc(OC)c2)c2ccccc2n1,/,-0.385
COc1ccc(N(CC(=O)Nc2c(C)n(C)n(-c3ccccc3)c2=O)S(=O)(=O)c2ccc(C)cc2)cc1OC,/,-0.19
Cc1nc2scc(C)n2c(=O)c1S(=O)(=O)NCCN1CCOCC1,1.35,73.6
Cc1ccc(S(=O)(=O)c2c(N)n(NC(=O)C3CC3)c3nc4ccccc4nc23)cc1,-1.35,/
Cc1ccccc1Nc1nc(N)nc(Cn2cc(Br)ccc2=O)n1,-0.6,/
Cc1cc2ccccc2n1CCNC(=O)c1ccc2c(c1)OCO2,0.25,0.21
Cc1cc(NC(=O)CCCN2C(=O)/C(=C\c3ccco3)SC2=S)no1,-0.65,/
CN(C(=O)COC(=O)c1cnc(Cl)c(Cl)c1)C1CCCCC1,1.35,-0.275
CCc1ccc(NC(=O)Nc2nnc(N(C)Cc3ccccc3)s2)cc1,-0.85,0.06
CC(NC(=O)Cc1ccccc1)P(=O)(O)c1ccccc1 (centres undefined),-1,1.48

# Structural class, the compounds so far containing a Cl atom (4)
SMILES,AID504770,Ba CapD inh
CCOC(=O)N1CCC(NC(=O)CSCc2nc(-c3ccccc3Cl)oc2C)CC1,0.65,-0.07
COc1cc(Cl)c(COC(=O)N2CCCC2C(=O)Nc2ccc3ccccc3c2)cc1OC (centres undefined),/,-0.345
O=C(OCC(=O)c1ccc(Cl)cc1Cl)c1ccccn1,-1.05,-1.17
CN(C(=O)COC(=O)c1cnc(Cl)c(Cl)c1)C1CCCCC1,1.35,-0.275

# Carrying on:
SMILES,AID504770,Ba CapD inh
CC(=O)Nc1ccc(NC(=O)OCCCCc2ccccc2)cc1,/,-0.47
OCCNc1nnc2c(n1)[nH]c1ccccc12,0.7,-3.23
Cc1ccc(N2C(=O)/C(=C/c3ccc([N+](=O)[O-])cc3)C=C2c2ccccc2)c(C)c1,/,-1.07
COc1ccc(-c2nc(-c3cccs3)no2)cc1,-0.45,0.435
CCN(CC(=O)Nc1ccc(Br)cc1)CC(=O)Nc1ccc(NC(C)=O)cc1,-0.35,/
Cn1nnnc1SCC(=O)Nc1ccc(C(=O)N2CCN(Cc3cccs3)CC2)cc1,-0.45,/
CC1=C(CC(=O)O)c2cc(F)ccc2/C1=C/c1ccc(S(C)=O)cc1 (centres undefined),/,0.555
O=C(Cn1cnc2c(oc3ccccc32)c1=O)Nc1ccccc1F,-0.25,0.535
CCN(CC)CCn1c(=O)[nH]c2cc(C(=O)NC3CCCC3)ccc21,0.1,/
O=C(CCC(=O)N1CCCCc2ccccc21)N1CCC2(CC1)OCCO2,0.55,-0.675
COc1cccc(OCC(=O)NC(C)C)c1,0.1,-1.24
C=CCN(C(=O)C(C)Sc1nc2ncccc2o1)c1ccccc1 (centres undefined),-0.05,0.08
C(=Nc1ccc(Cc2ccc(N=Cc3ccccn3)cc2)cc1)c1ccccn1,-0.4,1.05
CC(=O)Nc1ccc2c(c1)ncn2-c1ccccc1,-0.45,/
COc1ccc(NC(=O)CCCn2c(=O)c3sccc3n(CC(=O)C(C)(C)C)c2=O)cc1,-1,0.48
CNc1nc(NCCOC23CC4CC(CC(C4)C2)C3)nc(OCC(F)(F)F)n1,/,-0.215
CC1CCc2c(sc(NC(=O)c3cccs3)c2C(=O)N2CCCCC2)C1 (centres undefined),-0.3,1.23
Nc1cc(-c2ccc(Cl)cc2)nn1-c1ccc(I)cc1,0.15,0.16
CC(=O)OC1C(=O)c2ccccc2OC1c1ccccc1 (centres undefined),0.45,2.98
Cc1nc2nc(NC(=O)c3ccccc3)[nH]n2c(=O)c1Cc1ccccc1,0.4,-0.45
Cc1ccc(NC(NC(=O)c2cccs2)C(=O)c2ccccc2)cc1 (centres undefined),-0.1,71.1
CC1CN(CC(O)COC(C)c2ccc(Cl)cc2)CC(C)O1 (centres undefined),-0.25,/
COC(=O)CC1C(=O)NCCN1C(=S)Nc1ccccc1 (centres undefined),-0.4,-0.25
CCC(C)C12CN(C(C)=O)CC(C)(CN(C(C)=O)C1)C2=O (centres undefined),0.75,/
CNC(=S)NC1CCN(Cc2ccccc2)CC1,-1.3,/
COc1ccc(C(=O)CSC2=NCCCCCC2)cc1,-0.3,0.355
CN(C)c1c(F)cc(C(=O)NC(=O)Nc2nnc(C(F)(F)F)s2)cc1F,-0.9,0.69
O=C1CN(C(=O)c2cc([N+](=O)[O-])c(N3CCOCC3)c([N+](=O)[O-])c2N2CCOCC2)c2ccccc2N1,/,-0.035
C=CCNC(=O)CSc1nc2scc(-c3ccco3)c2c(=O)n1CC=C,-0.2,/
O=C(NC1CC1)c1ccc(OCC2CCCO2)cc1 (centres undefined),-1,/
NS(=O)(=O)c1ccc(NC(=O)CSc2nc3ccccc3n2C2CCCCC2)cc1,-0.05,/
Fc1ccc(NC2=NCCC2)cc1,0.15,/
O=C(NCCOc1ccccc1)C1=CC=CN2CCS(=O)(=O)N=C12,0.05,/
CCN(c1ccccc1)c1cc(C)c2ccccc2n1,0.15,/
COc1cccc(CNC(=O)C(C)n2c3ccccc3c3cnn(C)c(=O)c32)c1 (centres undefined),0.3,7.12
Cc1ccc(NC(=S)Nc2ccccc2Cl)cc1NS(C)(=O)=O,/,-1.12
COc1ccc(/C=c2\oc3cccc4c(OC)ccc(c2=O)c34)cc1,0.6,-1.33
COc1ccc(C(=S)N2CCCC2)cc1OC,0.15,0.025
Cc1cc(C(=O)NN)c(C)n1-c1ccccc1,-0.65,/
N#Cc1c(C(F)(F)F)cc(-c2ccccc2)n(N)c1=O,-0.7,1.66
CC(C)(C)OC(=O)N1CCN(c2ncnc3nc[nH]c23)CC1,-0.9,0.56
Cn1c(CO)nc2cc(N)ccc21,-0.55,/
CC(C)c1ccc(NS(=O)(=O)c2ccc(N3C(=O)CCC3=O)cc2)cc1,-0.5,0.665
O=C(Nc1ccc(Cl)cc1)c1ccc(=O)n(Cc2ccc(F)c(F)c2)c1,/,-0.145
O=C(Nc1cccc(Br)c1)C1CC(=O)N(C2CCCC2)C1 (centres undefined),-0.4,/
O=C(O)/C=C\C(=O)N1CCC(N2C(=O)Cc3ccccc32)CC1,/,-0.35
CC1c2cccn2CCN1S(=O)(=O)/C=C/c1ccc(Cl)cc1 (centres undefined),-0.1,/
CCCCc1nc2c(nnn2Cc2ccccc2)c(=O)[nH]1,-1.3,/
O=c1[nH]c(-c2ccccc2)nc2c1C1(CCCCC1)Cc1ccccc1-2,/,3.55
CCN(CC)CCCn1c(-c2ccccc2)cn2c3ccccc3nc12,-1.25,-0.35
C=CCN1C(=O)/C(=C/c2ccccc2)SC1=Nc1cccc([N+](=O)[O-])c1,/,0.02
N#CCSc1nc2ccc(N)cc2s1,-1.2,-0.36
C=CCn1c(SCC(=O)c2ccc(NC(=O)CC)cc2)nnc1C1COc2ccccc2O1 (centres undefined),1.1,/
Nc1ccc(-n2cnnn2)cc1,-0.3,-0.96
Cc1ccc(-n2c(C)nnc2SCC(=O)N(c2ccccc2)C(C)C)cc1,0.5,0.045
O=C(NCC1CCCO1)c1ccc2c(=O)n(CC3CCCO3)c(SCC(=O)N3CCN(c4ccccc4)CC3)nc2c1 (centres undefined),/,-0.43
Cc1ccc(NC(=O)Cn2c3ccccc3c(=O)c3cc(C)ccc32)c(Br)c1,/,1.75
O=C(c1cccc(S(=O)(=O)N2CCOCC2)c1)N1CCCCC1,1.55,/
COc1ccc2nc(C3C(=O)c4cccnc4C3=O)ccc2c1 (centres undefined),1.3,/
O=C(CSc1nc2ccccc2s1)c1ccc(O)cc1O,1.7,/

# (further entries)
SMILES,AID504770,Ba CapD inh
COC(=O)c1ccc(-c2ccco2)n1CC(=O)NC(C)C,0.15,-0.99
CC1CCCCC1NC(=O)CSc1nnc(CC(=O)Nc2ccccc2Cl)n1C (centres undefined),0.3,/
CCOC(=O)N1CCN(c2cc(C(F)(F)F)nc3c(Cl)cccc23)CC1,-0.8,0.35
O=C(CN1C(=O)C2C3C=CC(C3)C2C1=O)OCC(=O)c1ccccc1 (centres undefined),-0.15,0.395
Cc1cc(=O)oc(C)c1C(=O)NCc1ccccc1,0.3,-3.69*
O=C(CCN1C(=O)c2ccccc2C1=O)Oc1c(-c2ccco2)oc2ccccc2c1=O,-1,6.56
Cn1cccc1C(=O)Nc1cc(S(C)(=O)=O)ccc1Cl,-0.45,/
O=S1(=O)CC(O)C(S(=O)(=O)Cc2ccc(Cl)cc2)C1 (centres undefined),-0.1,-0.805
COc1ccccc1N=Cc1sc2ccccc2c1O,-0.8&-0.85,-0.215&-0.24
O=C(CSc1nc2ccccc2o1)NCC12CC3CC(CC(C3)C1)C2,-0.45,-0.13
COC(=O)Nc1ccc2c(c1)N(C(=O)CCN(C)C)c1ccccc1CC2,/,-0.395
O=C(NCc1ccco1)/C(=C/c1cccc([N+](=O)[O-])c1)NC(=O)c1ccc(Br)cc1,/,-0.415

# Whole records as entered above. Screens in order: AID504770 | Ba CapD inh
# Shown for `Cc1ccc(NC(=O)Cn2c3ccccc3c(=O)c3cc(C)ccc32)c(Br)c1` → / | 1.75
# Shown for `O=C(OCC(=O)c1ccc(Cl)cc1Cl)c1ccccn1` → -1.05 | -1.17
# Shown for `O=C(CSc1nc2ccccc2o1)NCC12CC3CC(CC(C3)C1)C2` → -0.45 | -0.13
# Shown for `Cc1cc2ccccc2n1CCNC(=O)c1ccc2c(c1)OCO2` → 0.25 | 0.21
# Shown for `CC1c2cccn2CCN1S(=O)(=O)/C=C/c1ccc(Cl)cc1` (centres undefined) → -0.1 | /

# Following part.
SMILES,AID504770,Ba CapD inh
COc1ccccc1CNC(=O)C1c2ccccc2C(=O)N2CCc3ccccc3C12 (centres undefined),-0.15,0.495
Cc1nc2cc(O)c(O)cc2s1,0.2,0.165
COc1ccc(Nc2cc(N3CCCCC3)ncn2)cc1,0,0.28
COc1ccc(CCNC(=O)c2cccnc2SCC(=O)Nc2ccc(C(C)C)cc2)cc1OC,/,-0.725
CCn1c(O)c(C=NCC(c2ccc(OC)cc2)N(C)C)c(=O)n(CC)c1=S (centres undefined),1.2,/
COc1ccc(/C=C2\SC(=O)NC2=S)cc1OC,1.5,/
CC(=O)N1CCC(N(C(=O)CSCCNC(=O)C(c2ccccc2)c2ccccc2)C2CC2)CC1,/,-0.675
Cc1ccc(C(=O)N/C(=C/c2cccs2)C(=O)NCc2ccccc2)cc1,-0.15,-1.62
O=C(CCn1c(=O)oc2ccccc21)NCc1ccccc1,-0.5,-1.25
CC1(C)CC(=O)C(C(O)c2ccccc2)C(C)(C)N1 (centres undefined),-0.85,0.005
COc1ccc(S(=O)(=O)/C=C/c2ccccc2)cc1,0.25,0.17
O=C(NC1CCCCCCC1)c1ccc(Cl)c(NC2=NC3CS(=O)(=O)CC3S2)c1 (centres undefined),0.95,-1.07
CCN(CC)CC(=O)Nc1ccc(-c2ccc(NC(=O)CN(CC)CC)cc2)cc1,0.45,/
Cc1ccc(N(CC(=O)Nc2cc(C)ccc2C)S(=O)(=O)c2c(C)nn(C)c2C)cc1,0.4,0.905
COc1ccc(NC(=O)CCCn2sc3ccccc3c2=O)cc1,-1,-0.025
CC(=O)Oc1ccc(Cl)c2cccnc12,0.3,47.1
Cc1ccc2cc(C#N)c(N3CCCN(C(=O)C4CCCCC4)CC3)nc2c1,0,/
Cc1ccc(N2C(=O)CC(C(=O)NC3(C)CCS(=O)(=O)C3)C2c2cccs2)cc1 (centres undefined),-0.65,/
COc1cc(/C=C\CO)cc(OC)c1OC1OC(CO)C(O)C(O)C1O (centres undefined),/,-0.105
O=C(Nc1ccc2c(c1)OC1(CCCC1)O2)C1CC1,0.65,0.38
COC(=O)c1sc2c(c1N)CSc1ccc(Cl)cc1-2,0.8,-0.9
COc1ccc(C(N)=O)c(Cl)c1OC,/,-0.025
COc1ccc(CCNC(=O)c2ccc3c(c2)ncn3-c2cccc(C)c2)cc1OC,/,0.37
CCN1CCN(C(=O)c2ccc3c(c2)NC(=O)c2ccccc2S3)CC1,-0.55,-0.18
CN1CCN(c2nc(N3CCN(c4ccccc4)CC3)ncc2F)CC1,-0.6,0.14
c1ccc(Nc2nc(Nc3ccccc3)nc(N3CCOCC3)n2)cc1,/,-0.13

# Source: PubChem (ICCB-Longwood Screening Facility, Harvard Medical School)
